# Beta2AR agonist = human beta-2 adrenergic receptor agonism by FAP | AID 504454 | Am2.2-beta2AR cells, FAP receptor internalization, flow cytometry; reference of the scale not given here | response, % (concentration not given with the values) | 340,000 compounds, 0.43% hits;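 active = response above a set limit, near 3 SD of response in nonfluorescent compounds, cut at about 42% in these data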;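 note: stock transfer was 100 nL into about 11 µL; a reference agonist was the positive control; negative values mostly stem from fluorescent compounds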
# Target sequence (P07550 whole entry, looked up): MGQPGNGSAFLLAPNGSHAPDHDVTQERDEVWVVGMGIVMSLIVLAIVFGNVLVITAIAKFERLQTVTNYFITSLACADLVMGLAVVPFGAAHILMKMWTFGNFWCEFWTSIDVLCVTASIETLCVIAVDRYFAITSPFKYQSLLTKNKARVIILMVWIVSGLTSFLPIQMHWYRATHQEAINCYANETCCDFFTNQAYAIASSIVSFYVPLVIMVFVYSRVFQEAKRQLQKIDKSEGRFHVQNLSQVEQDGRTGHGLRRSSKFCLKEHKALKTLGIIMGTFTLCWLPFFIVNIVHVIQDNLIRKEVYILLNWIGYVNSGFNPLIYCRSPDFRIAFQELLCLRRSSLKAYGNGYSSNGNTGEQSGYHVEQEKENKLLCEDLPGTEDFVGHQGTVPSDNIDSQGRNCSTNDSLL
# T cruzi repl = T. cruzi replication inhibition; 300,000 compounds, 1.4% hits; inhibition, % (concentration not given with the values); T. cruzi beta-gal in NIH3T3, luminescence, 90 h;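 active = mean inhibition across valid replicates above about 55%, limit read from the data; inconclusive = mean below that limit but half or more replicates reach it; inactive = mean below it, under half of replicates reach it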;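 note: signal also drops with host cell toxicity which is not excluded here; 0% = plate median of DMSO wells and 100% = zero luminescence signal; higher percent means less beta-gal luminescence so fewer parasites; stock transfer was 50 nL into about 50 µL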
# UCH37 DUB inh = human UCH37 deubiquitinating enzyme inhibition; inhibition, % (concentration not given with the values); 330,000 compounds, 0.33% hits; purified proteasome/UCH37, Ub-AMC cleavage fluorescence; Q9Y5K5;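 active = mean of two replicates above 20%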;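 note: 0% = compound-free wells with enzyme and 100% = wells lacking proteasome; stock transfer was 100 nL into about 20 µL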
# Target sequence (Q9Y5K5 whole entry, looked up): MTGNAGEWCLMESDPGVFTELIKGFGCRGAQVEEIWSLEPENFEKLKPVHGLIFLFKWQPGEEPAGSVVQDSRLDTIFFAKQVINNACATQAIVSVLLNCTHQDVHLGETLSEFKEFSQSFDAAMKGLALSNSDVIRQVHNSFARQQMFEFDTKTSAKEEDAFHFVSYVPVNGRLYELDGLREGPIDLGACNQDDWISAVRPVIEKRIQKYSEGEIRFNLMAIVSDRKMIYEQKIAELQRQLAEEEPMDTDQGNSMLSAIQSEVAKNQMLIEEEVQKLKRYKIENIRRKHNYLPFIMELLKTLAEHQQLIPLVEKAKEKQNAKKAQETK
#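 Material: human UCH37 enzyme supplied as purified proteasome complex / Amount: 0.15 nM proteasome as dispensed / Buffer or medium: pH 7.4 Tris-HCl (50 mM) with ovalbumin, ATP-MgCl2, DTT / Times: preincubation 30 min, reaction 25 min, room temperature / Technique: AMC fluorescence from Ub-AMC cleavage, excitation 355 nm, emission 460 nm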
# Bfl-1 A1 inh = inhibitors of the anti-apoptotic protein A1, read as caspase activation; MEF A1-2A-BIM cells, Caspase-Glo 3/7 luminescence, 3 h; percent of clofoctol response, vehicle zero; caspase activation, % (test concentration not listed); 330,000 compounds, 0.066% hits;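 active = over half of replicate activation scores above 10%, or exactly half above 10 with the replicate mean above 10; inconclusive = replicate mean below 10 yet half the replicates above 10; inactive = over half of replicates below 10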;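 note: wells of about 30 µL received 50 nL stock; many hits fall short of the cut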
# Calb FLC = affects C. albicans growth with fluconazole; C. albicans CaCi-2 (fluconazole-resistant clinical isolate) + fluconazole, Alamar Blue growth, 48 h; growth inhibition, % (concentration not given with the values); 300,000 compounds, 0.57% hits;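 active = most replicates above 75%; inconclusive = exactly half above 75%; inactive = most below 75%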;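 note: all wells also contain fluconazole at 8 µg/ml as a sub-toxic cotreatment; 0% = median of DMSO wells and 100% = median of geldanamycin control wells; wells of about 8 µL received 7.5 nL stock; the first replicate is given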
# RanGTP-Impb inh = inhibitors of RanGTP-importin-beta interaction, primary screen, biochemical, FRET, CFP-Ran, YFP-importin-beta, homogeneous; cell-free CFP-Ran/YFP-importin-beta FRET ratio; inhibition, % (no concentration beside the values); 300,000 compounds, 1.1% hits; AID 2216;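 active = most replicates above 15%; inconclusive = exactly half above 15%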;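 note: 0% = DMSO wells and 100% = Ran loaded with GDP instead of GTP; wells of about 40 µL received 100 nL stock; the first replicate is given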
# LANA-H2B inh = blocks KSHV LANA binding to histone H2A/H2B; Q9QR71; cell-free LANA-H2A/H2B peptide, fluorescence polarization; inhibition, % (test concentration not listed); 320,000 compounds, 0.6% hits; in the data active = inhibition mostly above about 10%, no sharp cut-off; inactive = mostly below about 6.7%;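 note: stock transfer was 7.5 nL into about 10 µL; 0% = median of vehicle wells and 100% = median of positive control wells; one replicate is shown; the record names a cut of 25% in any replicate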
# Beta apoptosis = blocks beta cell apoptosis; INS-1E cytokine-induced death, ATP luminescence, 48 h; percent of positive-control rescue, neutral wells zero; protection from apoptosis, % (concentration not given with the values); 300,000 compounds, 0.8% hits; AID 435005;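 active = all replicates at 75% or more, or half of them and the mean; inconclusive = half reach 75% but not the mean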;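 note: 0% = cytokine-treated negative control wells and 100% = positive control rescue; higher means more ATP so stronger rescue from cytokine killing; wells of about 40 µL received 100 nL stock; the first replicate is given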
# Active calls of the source: *; ? = inconclusive; nt = not tested or not shown. The order is random. Share with any hit: about 4.3%.
SMILES,Beta2AR agonist,T cruzi repl,UCH37 DUB inh,Bfl-1 A1 inh,Calb FLC,RanGTP-Impb inh,LANA-H2B inh,Beta apoptosis
COc1ccc(OC)c(C(=O)COC(=O)CNC(=O)c2ccccc2)c1,9,1,6.9,-1.0,?,?,-1.4,-3
Cc1noc(C)c1C(=O)Nc1cccc2ncccc12,9,-4,2.8,0.9,-3,2.7,-0.9,-9
O=C(NCc1cccs1)c1cc(-c2ccccc2)nn1CC1CC(c2cccnc2)=NO1 (stereo not given),-1,31,3.0,-0.6,-8,-3.2,2.7,-3
Cc1ccc(NC(=O)CN(C)CC(=O)Nc2ccccc2Oc2ccccc2)cc1,-6,-6,1.0,0.6,-17,-3.1,-2.1,-3
NC1C=CC=C(C(=O)O)C1 (stereo not given),-3,-9,3.0,0.7,0,4.7,-1.2,nt
CC(C)CC(=O)N1CCC(O)(CS(=O)(=O)Cc2ccc(Cl)cc2)CC1,-3,-12,-0.3,0.7,3,-0.9,-0.2,nt
COc1ccc(CN(C)c2nc(-c3cccnc3)nc3ccccc23)cc1OC,nt,14,1.3,0.4,11,2.4,-4.2,0
O=C(NC1C(=O)NNC1c1ccc(Cl)cc1)c1ccc(F)cc1 (stereo not given),2,-5,-1.5,-0.1,6,2.2,-8.4,-3
CCCSc1nnc(NC(=O)Nc2ccccc2)s1,8,11,1.6,-0.6,0,-3.1,1.9,32
COc1cccc(-c2cc(=O)c3cc(NC(=O)c4ccc(N(C)C)cc4)ccc3[nH]2)c1,nt,23,-12,3.2,-2,-0.1,3.1,4
COc1ccc(NC(=O)COC(=O)C(CC(C)C)N2C(=O)C3CC=CCC3C2=O)cc1Cl (stereo not given),5,10,-26,-0.5,-6,7.2,0.5,-5
COc1cc2c(CCNC(C)=O)c[nH]c2cc1Cl,7,nt,3.6,-0.4,nt,nt,11,0
O=c1[nH]cnc2sc3c(c12)CCC3,3,-12,1.9,0.5,1,5.8,1.3,-1
O=C(NN1C(=O)C2C(c3ccccc3)C=CC(c3ccccc3)C2C1=O)c1cccc(Br)c1 (stereo not given),4,11,4.4,0.9,24,-7.7,1.7,-8
Cn1ncc2c(Nc3cccc([N+](=O)[O-])c3)ncnc21,1,-12,0.7,1.3,1,-1.3,-4.7,10
CCOC(=O)C1=C(C)Nc2nnnn2C1c1ccccc1Cl (stereo not given),3,nt,2.1,0.1,nt,nt,1.9,1
O=C(CCl)N(c1ccccc1)c1ccccc1,3,-8,4.4,nt,58,3.6,nt,nt
CCOC(=O)N1CCN(c2cc(=O)n(-c3ccccc3C)c(=O)[nH]2)CC1,1,-18,0.8,0.1,31,36*,-6.1,-7
CCCCCCCNC(=O)C1(CC2CC(c3cccc(Br)c3)=NO2)CCN(C(=O)c2cc(OCC)c(OCC)c(OCC)c2)CC1 (stereo not given),1,28,4.0,-1.0,5,-1.1,4.8,9
CC(C)CNC(=O)c1ccc(Cl)c(NC(=O)COc2ccccc2)c1,nt,9,-1.0,0.4,8,8.6,-4.2,1
CCSc1ccc([C@@H]2[C@@H]3C(=O)N(C)C(=O)[C@@H]3[C@]3(C(=O)OC)CCCCN23)cc1OC,-4,nt,1.8,-0.1,nt,nt,3.7,-2
CCn1nc(C)c(C(=O)Nc2cc(Oc3ccc(Cl)cc3)cc([N+](=O)[O-])c2)c1C,-4,28,0.5,-0.5,13,-4.7,1.4,2
O=C(Cn1nnc(-c2ccccc2Cl)n1)N/N=C/c1ccc(-c2cccc(Cl)c2)o1,-19,8,nt,-0.4,0,3.6,nt,6
O=C(NC(=S)Nc1ccc2oc(=O)ccc2c1)c1ccc(-c2cccc(Cl)c2Cl)o1,nt,-3,5.7,0.6,2,0.3,5.1,-4
Cc1cccc(CC(C)NC(=O)c2cc(COc3ccc(C)c(C)c3)on2)n1 (stereo not given),6,9,-1.2,0.3,6,?,-0.1,-4
Oc1c(I)cc(I)c2cccnc12,14,0,3.0,nt,nt,1.4,nt,nt
CCn1cnc2c1c(=O)n(CC(=O)OC(C)C(N)=O)c(=O)n2Cc1ccccc1 (stereo not given),-3,-4,2.3,-0.9,-3,4.2,1.2,-1
Cc1ccc(/C=N/n2c(-c3ccccc3)n[nH]c2=S)cc1,-3,-6,nt,0.3,-4,-0.6,-6.4,nt
CC(Oc1ccc(F)cc1F)C(=O)NNC(=S)NCC1CCCO1 (stereo not given),1,-13,2.8,1.0,1,-3.5,1.1,-2
CCN(C(=S)NC(=O)Cc1ccc(OC)cc1)c1ccccc1,0,-28,0.9,0.1,-4,2.9,0.4,7
CC1CCN(Cc2c(C(=O)N/N=C/c3ccc(C(C)(C)C)cc3)nnn2-c2nonc2N)CC1,1,37,nt,?,?,1.8,0.8,33
O=C(COC(=O)C1(c2ccc(F)cc2)CCCC1)N1CCNC1=O,0,nt,-0.1,0.4,nt,nt,2.4,-5
CCOC(=O)c1cc2cc(C)ccc2[nH]1,3,-5,-6.8,-1.0,-4,1.3,0.9,4
COc1ccc(Sc2nc3ccccc3n3c(C(F)(F)F)nnc23)cc1,11,-11,-18,0.6,-4,-0.4,0.3,nt
Cc1ccccc1OCc1ccc(C(=O)N2CCOCC2)o1,-6,-2,1.9,0.8,-2,-5.2,4.9,0
CN(C)c1ccc(Nc2ncnc3ccc(Br)cc23)cc1,7,-1,6.2,0.5,-2,-1.4,-0.1,-5
COc1ccc(OC)c(NC(=O)CCn2c(=S)[nH]c3ccccc3c2=O)c1,39,2,4.5,1.4,31,-0.7,-6.9,-3
CCc1nnc(NC(=O)c2ccncc2)s1,-5,-2,7.0,-0.2,8,1.3,-0.9,-3
COc1cc(C(=S)N2CCCC2)cc(OC)c1O,11,-2,5.4,1.8,-15,nt,1.7,-6
COc1ccc(N2CCN(C(=O)c3ccc(S(=O)(=O)NCc4ccco4)cc3)CC2)cc1,4,nt,2.1,-0.4,nt,nt,0.8,-6
Cc1csc(NC(=O)CCc2c(C)nc3cc(-c4cccc(F)c4)nn3c2C)n1,1,15,-115,0.4,-5,6.8,2.6,4
O=C(NC1CCCCCCC1)c1ccco1,7,-18,-0.1,-0.4,-10,-3.1,-4.5,7
O=C(CN1C2=NCCN2c2ccccc21)N1CCOCC1,nt,-28,0.4,-0.1,-8,5.7,-3.7,-9
COCCn1c(=NC(=O)CSC(C)=O)sc2cc(OC)ccc21,0,14,4.1,-0.4,1,-0.5,5.0,-7
Cc1ccc2nc(Cl)c(/C=N/NC(=O)CN3CCOCC3)cc2c1,-4,2,nt,0.3,1,-0.4,-0.7,-1
CC(OC(=O)c1ccc(NC(=O)CC#N)cc1)C(=O)Nc1ccc2c(c1)OCCO2 (stereo not given),-3,1,-2.8,1.0,-4,1.5,-1.4,nt
CN(C1CCS(=O)(=O)C1)S(=O)(=O)c1ccc(N2CCCC2=O)cc1 (stereo not given),-2,-15,6.0,-0.6,-2,-18,0.3,-3
O=[N+]([O-])c1cccc(N/N=C/c2cc([N+](=O)[O-])ccc2O)c1,12,10,nt,0.0,-53,9.4,-7.4,nt
Cc1cc(C)c2c(n1)SCC(=O)N2CC(=O)Nc1cc(F)ccc1F,-1,-2,5.2,-0.5,6,?,-2.5,-12
O=C(Nc1nc(-c2ccncc2)cs1)c1ccc(S(=O)(=O)N2CCOCC2)cc1,1,-12,-6.1,0.8,32,5.5,2.0,11
CC(CN(C)Cc1ccccc1)OC(=O)c1ccc2c(c1)OCCO2 (stereo not given),-3,-9,5.0,-0.4,-2,2.3,1.0,1
CN(C)c1cc(O)c(C(=S)Nc2ccccc2)c(N(C)C)c1,2,-9,5.6,1.1,2,-5.9,-0.5,0
CCc1ccccc1NC(=O)CCS(=O)(=O)c1ccc(C)cc1,-1,0,0.9,-1.6,-6,-0.9,0.8,-1
O=c1[nH][nH]c(=O)c2c(NS(=O)(=O)c3ccccc3)cccc12,11,5,-22,-1.5,-34,4.9,4.6,0
OCC1CCCCN1CCNCc1cn[nH]c1-c1cccc2ccccc12 (stereo not given),2,-7,0.8,-0.8,-5,-1.0,-2.4,2
CCOC(=O)c1c(NC(=O)CCN2C(=O)c3ccccc3C2=O)sc(C(=O)OC(C)C)c1C,3,-5,0.9,-0.9,14,-1.0,0.9,-7
CC(=O)Nc1cc([N+](=O)[O-])ccc1N1CCOCC1,-6,0,3.8,-0.4,-2,2.9,-5.2,-3
CC1Cc2ccccc2N1Cc1nc2cc(Cl)ccc2c(=O)[nH]1 (stereo not given),-1,-1,0.0,-0.5,7,-0.7,-3.7,4
O=C(CCc1nnc(CCCCc2ccccc2)o1)NCc1cc(F)ccc1F,-12,6,-1.2,-0.9,1,2.1,-10,-5
COc1ccc(CCNC(=O)COC(=O)CCC(=O)c2ccc(F)cc2)cc1OC,4,-1,-2.2,-0.2,13,1.1,-2.4,5

# (more compounds)
SMILES,Beta2AR agonist,T cruzi repl,UCH37 DUB inh,Bfl-1 A1 inh,Calb FLC,RanGTP-Impb inh,LANA-H2B inh,Beta apoptosis
Cc1cc(C)c(S(=O)(=O)O)c(C)n1,0,-8,0.4,0.8,-7,-0.6,1.4,1
COc1cc(-c2nnc(NC(=O)CS(=O)(=O)c3ccc(F)cc3)o2)cc(OC)c1OC,-1,-1,4.4,0.0,3,5.4,0.3,nt
CC1CC(C)CN(CCCn2c(=S)[nH]c3ccccc3c2=O)C1 (stereo not given),-1,-17,6.2,0.5,3,1.1,-3.4,3
O=C(NCC1CCCO1)c1ccccc1NS(=O)(=O)c1cc([N+](=O)[O-])ccc1Cl (stereo not given),-8,nt,nt,0.2,nt,nt,-5.2,-6
CC(C)=C1C2CCC1C(C(=O)NCCc1ccccc1)C2C(=O)O (stereo not given),8,12,1.1,0.2,11,-1.3,-0.9,-13
CCOC(=O)c1oc2c(c1C)/C(=N/O)CCC2,7,-15,nt,0.6,-3,-4.8,-0.2,0
CSc1ncc(Cl)c(C(=O)Nc2ccccc2[N+](=O)[O-])n1,-3,0,5.7,0.8,2,-9.2,2.1,-5
CC(C)c1ccc(N(CC(=O)NCCSCc2ccco2)S(C)(=O)=O)cc1,-3,4,1.9,-0.8,1,-0.1,-0.3,3
COc1ccc(OCc2nnc(SCC(=O)NCC3CCCO3)n2N)cc1 (stereo not given),-1,nt,2.6,0.8,nt,nt,4.7,-4
Cc1csc(NC(=O)CSc2nnc3c4ccccc4nc(C(C)(C)C)n23)n1,-17,11,4.0,0.4,29,1.9,-4.8,nt
COC(=O)c1ccc(OC(=O)c2cnccn2)cc1,2,-2,1.7,-0.3,0,1.4,1.1,-5
CCOC(=O)Nc1ccc(S(=O)(=O)NCc2ccccc2)cc1,-5,-18,2.9,?,-12,3.2,-1.1,4
O=C(O)CC(CCc1ccccc1)OC1OC(CO)C(O)C(O)C1O (stereo not given),-2,nt,0.1,0.7,nt,nt,2.3,-5
Cc1ccc(C(=O)NC2c3ccccc3-c3ccccc32)cc1,-4,5,0.3,0.0,14,1.5,-5.7,-2
NC(=O)c1cc(C(=O)Cc2ccc(Cl)cc2)c[nH]1,2,5,3.8,-0.8,-7,-1.6,1.4,-4

# High-throughput results deposited in PubChem by several laboratories.
